TRPML1 ag – qHTS for Agonists of the Human Mucolipin Transient Receptor Potential 1 (TRPML1). activation, % (no concentration beside the values). 410,000 compounds, 0.12% hits. AID 624414, 2012. TRPML1-expressing cells, Ca2+ dye fluorescence, FDSS; host cell line not named in the record; reference of the full effect not given here; in the data active = activation above about 50%; inconclusive = about 30% to 50%; inactive = below about 30%; further: 0% is about no effect; the text of the record puts the active cut at 80%
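Tetracycline-induced TRPML1-DL cells are seeded and incubated overnight before loading with a no-wash Ca2+ dye and quencher. Agonist activity is taken from the 110 s fluorescence read following compound pin-transfer on an FDSS, before EC80 54-4 challenge.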
PINK1 expr mod – A Quantitative High throughput Screen to Identify Chemical Modulators of PINK1 Expression | PINK1 immunofluorescence, high-content cytometry, 24 h | AID 624263, 2012 | Potency, µM (doses to about 76.6 µM), without a hit: top-dose activation (PINK1 increase), hits mostly activators | 410,000 compounds, 0.2% hits; active = well fitted activation curve with a large enough effect; inconclusive = small, poorly fitted or top-dose-only effect; inactive = flat fitted curve, though single readings scatter; cell line not stated here;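 further: potency means the concentration at half of the fitted maximal effect; % of control where 0% means no effect; nearly all actives have a fitted effect of over 65% in size; a mitochondrial uncoupler was the plate control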
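Measures PINK1 amount and localization on or inside mitochondria by immunofluorescence. Stable cells get compounds at 5 concentrations for 24 hours before fixation and staining; CCCP controls included.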
D2 PAM – Beta-Arrestin HTS for Positive Allosteric Modulators of the Human D2 Dopamine Receptor: Potentiators; D(2) dopamine receptor (Homo sapiens), P14416; DiscoveRx D2 beta-arrestin cells, luminescence, 90 min; 100% = 57 uM dopamine signal; potentiation, % (no concentration beside the values); 360,000 compounds, 0.23% hits; active = potentiation of 50% or more; inconclusive = 30% to 50%; inactive = 30% or less;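 further: compound concentration not given in the record; tested on top of an EC20 dose of dopamine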
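PathHunter D2 cells, attached overnight at 37 deg C, received compound in DMSO plus dopamine at EC20 (50 nM final) for 90 min at 37 deg C. Beta-arrestin recruitment was read as luminescence after 1 h with detection reagent at ambient temperature.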
D2 ag – Beta-Arrestin HTS for Positive Allosteric Modulators of the Human D2 Dopamine Receptor: Agonists. D(2) dopamine receptor (Homo sapiens), P14416. AID 624465, 2012. activation, % (test concentration not listed). 360,000 compounds, 0.084% hits. DiscoveRx PathHunter D2 beta-arrestin, luminescence, 90 min; 100% = 57 uM dopamine signal; in the data active = activation above about 40%; inconclusive = about 15% to 40%; inactive = below about 15%; further: compound concentration not given in the record; the text of the record calls up to 30% inactive
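Agonist mode: compounds alone added to overnight-plated D2 PathHunter cells for 90 min at 37 C, with 57 uM final dopamine (EC100) defining full response. Beta-arrestin recruitment detected by chemiluminescent reagent, read after 1 h at ambient temperature.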
Six1-Eya2 blk – qHTS Assay for Inhibitors of the Six1/Eya2 Interaction. AlphaScreen GST-Six1/His-Eya2 binding, biochemical; hits give low values; control for the full effect not named in the record. activity change, % (no concentration beside the values). 360,000 compounds, 0.56% hits; in the data active = activity change below about -65%; inconclusive = about -30% to -65%; inactive = above about -30%; further: on the % scale 0 is the no-effect control and ±100 the full control effect
Target sequence (O00167 whole entry, looked up): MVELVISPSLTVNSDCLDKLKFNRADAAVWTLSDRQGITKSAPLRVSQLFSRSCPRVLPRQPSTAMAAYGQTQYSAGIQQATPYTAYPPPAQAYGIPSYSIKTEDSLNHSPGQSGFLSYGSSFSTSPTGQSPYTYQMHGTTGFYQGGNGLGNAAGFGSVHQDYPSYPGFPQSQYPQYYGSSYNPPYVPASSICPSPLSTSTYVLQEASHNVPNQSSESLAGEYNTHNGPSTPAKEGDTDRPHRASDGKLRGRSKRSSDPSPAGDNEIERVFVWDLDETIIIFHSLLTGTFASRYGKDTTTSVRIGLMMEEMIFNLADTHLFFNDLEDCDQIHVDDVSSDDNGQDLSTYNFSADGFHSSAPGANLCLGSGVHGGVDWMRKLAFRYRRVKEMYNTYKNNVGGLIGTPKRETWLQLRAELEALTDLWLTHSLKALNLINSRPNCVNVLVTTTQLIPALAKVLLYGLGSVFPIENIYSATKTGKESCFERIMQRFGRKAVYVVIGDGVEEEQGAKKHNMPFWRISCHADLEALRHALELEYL
Target sequence (Q15475 whole entry, looked up): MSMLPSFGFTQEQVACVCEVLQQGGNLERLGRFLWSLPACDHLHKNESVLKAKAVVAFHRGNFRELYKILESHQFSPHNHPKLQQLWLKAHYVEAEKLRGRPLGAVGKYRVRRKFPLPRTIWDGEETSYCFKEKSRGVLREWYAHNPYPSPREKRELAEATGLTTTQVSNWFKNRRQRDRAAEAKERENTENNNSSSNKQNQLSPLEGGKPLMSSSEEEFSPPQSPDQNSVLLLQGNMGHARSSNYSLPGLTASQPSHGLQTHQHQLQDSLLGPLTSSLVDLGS
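AlphaScreen with GST-Six1 and His-Eya2 (5X mix: 250 nM and 500 nM), glutathione donor and nickel acceptor beads; buffer 50 mM Tris pH 8.0, 300 mM NaCl, 1 mM TCEP; 1 h at 37 C in the dark.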
CtBP-E1A inh – qHTS Assay for Inhibitors of the CtBP/E1A Interaction | CtBP / adenovirus E1A interaction (AlphaScreen) | AlphaScreen GST-E1A/His-CtBP binding, 1536-well; hits give low values; control for the full effect not named in the record | activity change, % (no concentration beside the values) | 340,000 compounds, 0.49% hits; in the data active means activity change below about -65%; inconclusive means about -30% to -65%; inactive means above about -30%; further: on the % scale 0 is the no-effect control and ±100 the full control effect
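Steps: dispense buffer (Tris pH 8.0, NaCl 300 mM, TCEP 1 mM, BSA, Tween 20); add 5X protein mix (GST-E1A, His-CtBP, 125 nM each); pin 23 nL compound; 2 h at 37 °C, dark; add 5X beads (50 ug/mL); 1 h; read.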
* hit, by the source's call; ? = inconclusive; . = no result given; [ ] = dose if it differs, or a comment.

The first four compounds as a preview:
SMILES	TRPML1 ag	PINK1 expr mod	D2 PAM	D2 ag	Six1-Eya2 blk	CtBP-E1A inh
O=C(CCc1ccccc1)Nc1cc2c3c(c1)CC(=O)N3CCC2	0.2	0.2%	-14	-1.4	-10	-2
Cc1cc(F)ccc1S(=O)(=O)NCC1CC2CCC1C2 (stereo not given)	.	5.4%	-4	-0.4	8	8
OC1(c2ccc(F)cc2)CCN(Cc2nnnn2Cc2cccs2)CC1	0.4	11%[38.3 µM]	-28	-2.4	-1	0
Cc1cccc(CCNC(=O)CCS(=O)(=O)c2ccc(Br)cc2)c1	-0.1	-0.1%	-10	-2.6	6	.

The whole of this part, from the first entry:
SMILES	TRPML1 ag	PINK1 expr mod	D2 PAM	D2 ag	Six1-Eya2 blk	CtBP-E1A inh
O=C(CCc1ccccc1)Nc1cc2c3c(c1)CC(=O)N3CCC2	0.2	0.2%	-14	-1.4	-10	-2
Cc1cc(F)ccc1S(=O)(=O)NCC1CC2CCC1C2 (stereo not given)	.	5.4%	-4	-0.4	8	8
OC1(c2ccc(F)cc2)CCN(Cc2nnnn2Cc2cccs2)CC1	0.4	11%[38.3 µM]	-28	-2.4	-1	0
Cc1cccc(CCNC(=O)CCS(=O)(=O)c2ccc(Br)cc2)c1	-0.1	-0.1%	-10	-2.6	6	.
O=C(NCc1n[nH]c(=S)n1-c1cccc(Cl)c1)c1ccc(S(=O)(=O)N2CCCC2)cc1	0.6	-4.1%[38.3 µM]	-15	-2.9	1	8
O=C(C1CCCN1S(=O)(=O)c1cccc2nsnc12)N1CCCCCC1 (stereo not given)	-0.4	-0.5%	-8	-5.0	1	.
Cc1cccc(C)c1OCc1nnc(SCC(=O)NCCc2ccccc2)o1	1.8	-0.2%	11	-1.7	-1	4
CCOc1cc(NC(=O)c2ccccn2)c(OCC)cc1NC(=O)c1cccc(C)c1	2.3	8.0%	-6	-5.7	2	3
O=C(CSc1nnc(-c2ccccc2)n1-c1ccc(Cl)cc1)NNC(=S)Nc1ccccc1	0.2	0.0%	-30	-3.2	-19	-2
O=C(CSc1nc2ccccc2[nH]1)Nc1ccc2c(c1)CCC2	1.6	4.5%	-14	-5.6	4	6
COc1ccccc1CNC(=O)C1=C(C)C(=O)OC12CCC(C)CC2 (stereo not given)	-0.3	0.3%	-1	-3.4	-3	3
CCOc1ccc(NC(=S)Nc2ccc(OCc3ccccc3)cc2)cc1	0.3	2.5%	2	-1.9	10	4

Single records, as listed above. Values in the order: TRPML1 ag | PINK1 expr mod | D2 PAM | D2 ag | Six1-Eya2 blk | CtBP-E1A inh
Profile of O=C(CSc1nc2ccccc2[nH]1)Nc1ccc2c(c1)CCC2 → 1.6 | 4.5% | -14 | -5.6 | 4 | 6
Profile of Cc1cc(F)ccc1S(=O)(=O)NCC1CC2CCC1C2 (stereo not given) → . | 5.4% | -4 | -0.4 | 8 | 8

New compounds follow.
SMILES	TRPML1 ag	PINK1 expr mod	D2 PAM	D2 ag	Six1-Eya2 blk	CtBP-E1A inh
Cc1ccc(C(=O)NCC(=O)N2CCc3ccccc3C2)cc1C	2.0	-0.1%	-6	-2.9	4	2
O=C(Cn1nc(-c2ccco2)ccc1=O)Nc1ccc(Br)cc1	-0.7	-1.5%	-8	-2.2	-2	4
CCOC(=O)/C(=C/c1ccc(Cl)cc1)NC(=O)c1ccco1	-0.1	-0.8%	-14	-2.7	-8	-27
O=C(Nc1ccon1)C(Sc1ccccc1)c1ccccc1 (stereo not given)	1.7	?	0	2.0	2	2
N=c1n(Cc2ccccc2Cl)c2ccccc2n1CC(O)c1ccco1 (stereo not given)	-0.5	-0.4%	-1	-1.3	-1	2
CCOC(=O)C1=CCN(S(=O)(=O)c2ccccc2Br)C1c1ccc(C)cc1 (stereo not given)	1.4	-0.3%	-1	-2.4	12	14
CCCCN1CCC(=O)C(C(=O)OCC)=C1C(=O)OCC	-0.9	0.6%	-7	-1.0	1	4
CCC(=O)Nc1ccc2c(c1)ncn2-c1ccccc1	1.3	-1.1%	-4	-3.4	-2	3
CC1CCN(CCCCOc2ccccc2Br)CC1	1.4	2.2%	-25	-6.2	6	-3
O=C(COC(=O)c1cc(S(=O)(=O)N2CCOCC2)ccc1F)Nc1cc([N+](=O)[O-])ccc1F	0.1	-1.4%	0	-5.6	2	5
CCCNC(=O)Nc1ccc(C(F)(F)F)cc1	1.4	3.2%	-6	-6.5	3	10
O=C(c1cc2ccccc2c(=O)o1)N1CCc2ccccc2C1	-0.9	-1.7%	11	-1.5	2	-2
CC(=O)C1=C(C)OC(N)=C(C#N)C1c1cccc([N+](=O)[O-])c1 (stereo not given)	1.9	-0.1%	-7	0.4	-5	.
COc1ccc(CCNC(=O)Cc2ccc(OC)c(OC)c2)cc1OC	.	-0.6%	-26	-6.5	-8	0
COC(=O)c1ccc(NS(=O)(=O)c2ccccc2)o1	0.1	1.7%	-8	3.7	4	25
CC1=NN(C(=O)c2ccccc2F)C(O)(c2ccc(Cl)cc2)C1 (stereo not given)	1.1	-1.5%	-6	-7.2	1	-8
O=C(Nc1nnc(-c2ccccc2SCc2ccccc2)s1)Nc1ccccc1F	0.0	8.0%	0	0.2	-3	1
O=C(NC1CCCCCC1)C1CCCN(S(=O)(=O)c2cnc[nH]2)C1 (stereo not given)	-0.6	0.9%	-7	-2.3	0	2
CC12CC(NC(=O)N1c1cccc(C(=O)NCc3ccccn3)c1)c1ccccc1O2 (stereo not given)	0.1	1.8%	-6	0.2	6	.
S=c1[nH]nc(-c2cc3c(s2)-c2ccccc2CC3)o1	2.2	-1.4%	-3	3.8	18	-3
O=C(CNC(=O)c1ccncc1)N/N=C/c1ccccn1	1.2	3.9%	-4	-2.5	-8	?
Nc1cc(=O)[nH]c(SCC(=O)c2ccc(F)cc2)n1	1.3	2.3%	-7	-4.4	4	.
O=C(NCc1ccccc1C(F)(F)F)c1cccc2c1C(=O)c1ccc(N3CCC(N4CCCCC4)CC3)cc1S2(=O)=O	14	-0.8%	-6	-7.0	4	-7
CCOC(=O)C1CCCN(C(=S)Nc2cccc(Cl)c2)C1 (stereo not given)	0.2	0.0%	-14	-2.5	10	12
Cc1ccc(Oc2nc(-c3ccccc3)ncc2S(=O)(=O)c2ccc(C)cc2)cc1	0.6	5.4%	0	0.2	11	-4
O=C(COc1ccc2ccccc2c1)NNC(=O)c1cnccn1	-0.4	11%	1	1.0	-22	-16
Cc1ccc(F)c([C@H]2[C@@H]3C=CCC[C@@]3(C)C(=O)N2Cc2ccccc2)c1	1.1	7.7%	-13	-0.2	0	-10
CC(=O)c1c[nH]c(C(=O)NCc2cccc(C(F)(F)F)c2)c1	-0.2	-0.8%	-6	-4.0	9	4
CCOc1ccc(C(C)=O)cc1COC(=O)CCc1cc(OC)c(OC)c(OC)c1	0.4	1.0%	-1	-1.2	-8	-1
C=CCOc1ccc(CNCCc2ccc(S(N)(=O)=O)cc2)cc1	0.5	-0.4%	-15	-1.3	-4	-3
CC(C)NC(=O)C(C)n1cccc1C(=O)c1ccccc1 (stereo not given)	-0.2	0.8%	-10	-1.5	1	2
CCOC(=O)CNC(=O)Nc1nnc(-c2ccc(OCC)cc2)o1	1.9	0.5%	2	-3.8	-27	?
N=c1n(-c2ccccc2)c(O)cc(=O)n1-c1ccccc1	3.8	3.7%	1	0.7	-13	-3
C=CCNC(=O)N1C2=NC(C(=O)OC)=C(C(=O)OC)[C@@H]3N(Cc4ccccc4)c4ccccc4[C@]23C[C@H]1C(=O)OC	-0.6	0.8%	-4	0.1	2	0
CCCNC(=O)C1(C)CCN(C(=O)c2ccc3sccc3c2)C1 (stereo not given)	-0.8	1.5%	-8	-5.4	6	4
CCOc1ccc2ccccc2c1C1NC(=O)N(C)C(C)=C1C(=O)OCCOC (stereo not given)	-0.4	1.3%	-4	-6.9	3	.
C=CCNc1ncnc2c1cnn2-c1ccc(Cl)cc1	0.2	1.5%	3	-3.3	-4	2
CCc1nnc(NC(=O)CSc2nnc(Cc3cc(=O)[nH]c(=O)[nH]3)n2-c2cccc(OC)c2)s1	1.8	1.6%	-12	-2.6	-1	8
Cc1ccc(C(=O)NCc2ccc(F)cc2)s1	0.6	2.8%	3	2.5	3	13
Cc1cc(C)nc(NC(=O)CSc2nc3ccccc3s2)n1	1.2	1.8%[38.3 µM]	-16	-0.4	1	-3
COc1cc2ccccc2cc1C(=O)NC1CCCC1	-0.2	2.4%	-22	-2.2	1	5
CC1(C)NC(=O)N(CCCCOc2cccc(C(F)(F)F)c2)C1=O	-0.2	-1.6%[38.3 µM]	-10	-2.4	4	3
O=C(Nc1nnc(CCN2CCCCC2)s1)c1ccc(Br)cc1	-0.2	-0.4%	-3	-2.0	10	13
CC1CCCN(Cc2nc3c(c(=O)n(C)c(=O)n3C)n2Cc2c(F)cccc2Cl)C1 (stereo not given)	-0.8	3.4%	-8	-1.6	-1	1
Cc1cc(C)n2nc(SCC#N)nc2n1	0.6	1.1%	-4	-0.7	2	-1
COc1ccc(CN2CCCCCC2)cc1OC	-1.0	2.2%	-12	-2.1	-6	1
COC(=O)c1ccc(NC(C)=O)o1	-0.5	0.7%	19	-0.2	11	-1
O=C(/C=C/c1cccs1)N1CCC2(CC1)Oc1ccc(F)cc1C(=O)C21CC(c2ccc(Cl)cc2)=NO1 (stereo not given)	1.5	1.5%	-7	-1.8	-1	-10
O=C(/C=C/c1cccc(Cl)c1)Nc1ccncc1	-0.6	-0.9%	19	1.3	-3	-2
O=S(=O)(Nc1cccc2ncccc12)c1cccc(C(F)(F)F)c1	-1.4	0.3%	-1	-3.0	-3	.
COc1ccc(S(=O)(=O)NC2CCCCC2)cc1C(=O)N1CCCCC1	0.0	-2.0%	-2	2.9	13	-2
Cc1cc(NC(=O)CCCS(=O)(=O)c2nc(-c3cccs3)cc(C(F)(F)F)n2)no1	1.0	-3.1%	-51	-11	-4	0
Cc1cc(N2CCOCC2)nc(-c2ccc([N+](=O)[O-])cc2)n1	0.0	5.6%	5	-2.6	5	0
CCN(CC)CCCNC(=S)N1CCn2c(nc3ccccc32)C1	-0.1	-0.8%	-4	-4.8	6	6
O=C(CN1CCN(c2ccc(F)cc2)CC1)c1ccc2c(c1)OCO2	0.1	-3.7%	-22	-5.5	-6	-1
COC(=O)c1cn(C(C)C(=O)NCc2ccco2)c2ccccc12 (stereo not given)	1.9	1.8%	-27	0.9	1	0
O=c1c2cc(N3CCOCC3)ccc2[nH]c(=S)n1CCCN1CCCC1	-1.1	4.7%	-6	-1.6	-7	-3
COc1ccccc1N1C(=O)S/C(=C\c2cc(C)n(C)c2C)C1=O	0.4	2.4%	0	-2.8	-14	-14

Source: PubChem BioAssay
